N370S GC: inhibits or activates N370S mutant glucocerebrosidase; Potency, µM (highest dose often 59.4 µM), for inactives: top-dose activity change, negative = inhibition, hits mostly inhibitors; 0.092% of 330,000 active; AID 2101; N370S GC spleen homogenate, 4MU-glucoside fluorescence; P04062; active = well fitted inhibition curve with a large enough effect; inconclusive = small, poorly fitted or top-dose-only effect, or effect the other way, or another doubt; inactive = no such curve, though single readings can be large or run the other way;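 note: 0% = full enzyme activity and -100% = no enzyme basal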
The depositor's hits bear a star; ? = inconclusive; & = joins results of further samples. Potency is the fitted concentration of half-maximal effect.

structure	N370S GC
O=[N+]([O-])c1c(NCCO)cc(N2CCC3(CC2)OCCO3)c2nonc12	21.1%
CN(C)CCCN(C(=O)C1COc2ccccc2O1)c1nc2cc3c(cc2s1)OCO3 (stereo not given)	-27.0%
CN(C(=O)c1ccc(Br)o1)C1CCCCC1	-5.2%
COCCNC(=O)COC(=O)CSCc1nc2ccccc2s1	1.6%
Cc1ccc(OCCOC(=O)C2CCN(S(=O)(=O)c3ccc(C)c(C)c3)CC2)cc1	0.7%
COC(=O)[C@@H](NC(=O)N1CCN(c2cccc(C(F)(F)F)c2)CC1)C(C)C	21.1%
Cc1ccc(OC(=O)C(F)(F)F)c2c1NCCC2	2.1%
CCC1CCCCN1CCCNC(=O)CSc1nc2nc(C)c(Cc3ccccc3Cl)c(C)n2n1 (stereo not given)	-1.6%
CCOC(=O)c1cnc(-n2cc(C)cn2)nc1NCc1ccc2c(c1)OCO2	6.4%
CCOC(=O)c1cnn(-c2ncnc3sc(C)c(C)c23)c1N	-10.6%
CCCCN(C(=O)c1ccc(NC2CC2)c([N+](=O)[O-])c1)c1c(N)n(CCCC)c(=O)[nH]c1=O	-21.6%
Cc1onc(-c2ccccc2Cl)c1C(=O)N1CCN(C=O)CC1	-1.8%
CCOC(=O)CSc1nnc(CNC(=O)c2ccc(OC)cc2)n1Cc1ccccc1	4.8%
Cc1cc(C)nc(SCC(=O)c2ccc([N+](=O)[O-])cc2)n1	-7.6%
C/C(CC(=O)NCc1ccccc1)=N\NC(=O)c1cnccn1	0.0%
CCOC(=O)c1cnc2c(c(C)nn2C)c1Oc1ccc(OC)cc1	9.4%
CCOC(=O)N1CCN(c2cc(NCCO)c([N+](=O)[O-])c3nonc23)CC1	-3.9%
Cc1nc(NC(=O)CSc2nnnn2Cc2ccccc2)sc1C	-20.5%
CCOc1ccc(NC(=O)CCSc2nnc(C)s2)cc1	5.6%
CCCNCc1cc(OC)c(OCC(=O)NCCc2ccccc2)cc1Br	18.9%

Reformatted with the structure last: entries from further up.
N370S GC | smiles
-1.8% | Cc1onc(-c2ccccc2Cl)c1C(=O)N1CCN(C=O)CC1
4.8% | CCOC(=O)CSc1nnc(CNC(=O)c2ccc(OC)cc2)n1Cc1ccccc1

(listing goes on)
structure	N370S GC
CCOC(=O)c1nnn(CC(=O)N2N=C(c3ccc(Cl)cc3)CC2c2ccccc2)c1C(=O)OCC (stereo not given)	12.6%
O=C1Nc2ccc(S(=O)(=O)N3CCCC3C(=O)O)c3cccc1c23 (stereo not given)	-4.6%
O=C(CN1C(=O)C2CC=CCC2C1=O)Nc1ccc(S(=O)(=O)Nc2nccs2)cc1 (stereo not given)	-1.8%
N#Cc1c(N)c(C(=O)c2ccccc2)n2c1CCC2	3.1%
CN(C)c1ccc(-c2nn3c(-c4ccccc4Cl)nnc3s2)cc1	7.4%
COc1ccc(-c2nc3cnccn3c2NCc2ccccc2)cc1SC1CCCCC1	6.2%
COc1ccc(Nc2nc(C)cc(C)c2C(N)=O)c(OC)c1	3.6%
O=c1cc(CN2CCN(c3ccc(F)cc3)CC2)nc2sccn12	6.6%
CC(=O)Nc1ccc(OCC(O)CN2CCN(S(=O)(=O)c3ccc(NC(C)=O)cc3)CC2)cc1 (stereo not given)	21.5%
CCOC(=O)N1CCN(S(=O)(=O)c2cc(OCC(N)=O)c(C)cc2Cl)CC1	0.6%
NNC(=O)c1cccc(COc2cccc(Br)c2)c1	0.1%
O=C(NCCN1CCOCC1)C(=O)NCC1OCCN1S(=O)(=O)c1ccc(F)cc1 (stereo not given)	-6.6%
Cc1ccc(/C=N/NC(=O)c2nnn(-c3nonc3N)c2CSc2ccc(Cl)cc2)o1	-8.8%
COc1ccc(C2Nc3ccccc3C(=O)N2Cc2ccco2)cc1CN1C(=O)c2ccccc2C1=O (stereo not given)	23.6%&11.6%
Cc1cc(Cl)ccc1OCC(=O)N1CCCN(C(=O)COc2ccc(Cl)cc2C)CC1	14.6%
FCCCOc1ccc(/C=N/OCc2c(Cl)cccc2Cl)cc1	-18.2%
Cn1c(NC2CCCCC2)c(N=O)c(=O)n(C)c1=O	2.8%
Cc1cccnc1NC(=O)c1cccc(S(=O)(=O)NCc2ccccc2)c1	0.5%
COC(=O)c1c(NC(=O)c2ccco2)sc2c1CCC2	-4.0%
C=CCn1c(Cc2c[nH]c3ccccc23)n[nH]c1=S	12.6%
COc1ccc(-c2nn(CC(=O)NCCc3ccccc3)c(=S)n2C)cc1	-0.8%
Cc1ccc(S(=O)(=O)N(C)c2ccc(OCC(=O)NCc3ccco3)cc2)cc1	-6.8%
Cc1ccc2[nH]c(=O)c(CN(CCN3CCOCC3)C(=O)Nc3ccc(F)cc3)cc2c1	-6.4%
COc1ccc(N2CCN(C(=O)CSc3nnc4ncccn34)CC2)cc1	0.1%
COc1cc(OC)cc(C(=O)N[C@H](C(=O)NCc2cccs2)C(C)C)c1	0.3%
CCC(=O)NC(=S)Nc1cccc(NC(=O)c2ccccc2C)c1	-14.6%
CSCC(=O)N1CCCC(CO)(Cc2ccccc2C)C1 (stereo not given)	9.3%
CC(Oc1ccc2ccc(=O)oc2c1)C(=O)NCCCn1ccnc1 (stereo not given)	-1.2%
O=[N+]([O-])c1cccc(/C=N/N2CCN(Cc3ccc(Cl)cc3)CC2)c1	-4.7%
COc1cc(NS(=O)(=O)c2ccc3c(c2)n(C)c(=O)n3C)cc(OC)c1	2.8%

Among those listed so far, these contain bromine.
structure	N370S GC
CN(C(=O)c1ccc(Br)o1)C1CCCCC1	-5.2%
CCCNCc1cc(OC)c(OCC(=O)NCCc2ccccc2)cc1Br	18.9%
NNC(=O)c1cccc(COc2cccc(Br)c2)c1	0.1%

Pulled one by one from the entries so far:
structure	N370S GC
CCCCN(C(=O)c1ccc(NC2CC2)c([N+](=O)[O-])c1)c1c(N)n(CCCC)c(=O)[nH]c1=O	-21.6%
CCCNCc1cc(OC)c(OCC(=O)NCCc2ccccc2)cc1Br	18.9%
NNC(=O)c1cccc(COc2cccc(Br)c2)c1	0.1%
CN(C)CCCN(C(=O)C1COc2ccccc2O1)c1nc2cc3c(cc2s1)OCO3 (stereo not given)	-27.0%
Cc1cc(C)nc(SCC(=O)c2ccc([N+](=O)[O-])cc2)n1	-7.6%

Remaining list, next part:
structure	N370S GC
O=c1c2ccccc2c(=O)n2n1Cc1ccccc1C2	-6.6%
CC1(C)CC2CC(C)(CN2S(=O)(=O)c2cccc(C(=O)OCC(=O)NC(N)=O)c2)C1 (stereo not given)	-6.3%
Cc1cc(C)n(-c2ccc(NC(=O)C3CCCCN3C(=O)c3ccoc3C)cc2)n1 (stereo not given)	-1.3%
CCCN1C(=O)c2cc(C(=O)NCCc3cccc(C)c3)ccc2C1O (stereo not given)	1.7%
COc1ccc(C(=O)CCC(=O)N2CCN(c3ccc([N+](=O)[O-])cc3)CC2)cc1	-3.9%
Cc1ccc(NC(=O)CN2C(=O)NC3(CCCc4ccccc43)C2=O)c([N+](=O)[O-])c1 (stereo not given)	-3.6%
O=C(OCC(=O)N1CCCC1)c1c(Cl)ccc(Cl)c1Cl	-10.6%
O=C(CN1C(=O)CC(c2ccco2)Sc2ccccc21)NCc1ccc2c(c1)OCO2 (stereo not given)	13.9%
CCOc1ccc(CCNC(=O)COC(=O)c2cccnc2Cl)cc1OCC	-5.2%
O=C(COC(=O)c1cc[n+]([O-])cc1)Nc1ccc([N+](=O)[O-])cc1	-3.5%

Next structures
molecule,N370S GC
CC1CC(C)CN(C(=O)COC(=O)c2ccc(Cl)nc2)C1 (stereo not given),5.8%
CCn1nnnc1NC(=O)c1cc(OC)c(OC)c(OC)c1,-2.9%
CN(C(=O)c1ccc2c(c1)OCCO2)c1c(N)n(Cc2ccccc2)c(=O)[nH]c1=O,-7.4%
O=S(=O)(c1ccccc1)c1nc(-c2ccco2)oc1N1CCCCCC1,-10.3%
COc1ccccc1OCc1cc(C(=O)N(C)CCC2CCCCO2)no1 (stereo not given),5.7%
O=C(Cn1ncc2c1-c1ccccc1OC2)N1CCN(c2ccccn2)CC1,-3.6%
CCOC(=O)N1CCN(C(=O)c2cccc(F)c2)CC1,-8.9%
Cc1scc(C(=O)NNC(=S)NCC(C)C)c1C,-12.0%
Cc1cc2oc(C(=O)N(Cc3ccc(N(C)C)cc3)CC3CCCO3)c(C)c2cc1C (stereo not given),-1.8%
O=C(COC(=O)c1ccccc1C(=O)c1ccccc1)c1ccco1,0.8%
c1ccc2oc(-c3csc(N4CCOCC4)n3)cc2c1,-15.7%
COC(=O)C(C(=O)OC)C(C[N+](=O)[O-])c1ccc(O)c(OC)c1 (stereo not given),-10.7%
O=C(CSc1nc(-c2ccccc2Cl)ns1)NCc1ccco1,5.9%
CNC(=S)N/N=C(\C)c1cccc(C(F)(F)F)c1,1.3%
O=C(c1coc2ccccc2c1=O)N1CCN(c2cccc(C(F)(F)F)c2)CC1,-28.8%
COc1ccccc1/C=C/C=N/NC(=O)CCC1C(=O)NN=C1C (stereo not given),-2.7%
COc1cccc(NC(=O)NC2CCN(Cc3nnnn3Cc3ccc(F)cc3)CC2)c1,-29.5%
COc1ccc(OCC(O)CNC(=O)c2ccc(Br)cc2)cc1 (stereo not given),-7.4%
COc1cc(NC(=O)c2cc(C)on2)cc(OC)c1OC,3.8%
CC1(C)Cc2c(cnn2-c2cccc(F)c2)C(NC(=O)C2CCOCC2)C1 (stereo not given),-4.0%
CCOC(Cn1ccc(=O)[nH]c1=O)OCC,4.7%
O=C1CN(C(=O)CSc2nc(-c3ccc(Cl)cc3)cs2)c2ccccc2N1,-14.4%
CCOC(=O)C1(CCc2ccccc2)CCN(C(=O)CCc2cnccn2)CC1,6.2%
O=[N+]([O-])c1ccc(-c2cn3c(n2)CCC3)cc1,7.9%
N#CCCN(Cc1cccnc1)C(=O)Nc1cccc(Cl)c1,1.4%
CC1CCC(NC(=O)CCS(=O)(=O)c2ccc3c(c2)oc(=O)n3C)CC1 (stereo not given),-11.1%
CC(C)c1nc(NCC2CCCO2)c(C#N)c2c1COC(C)(C)C2 (stereo not given),-5.2%
Cc1ccc(Nc2c(F)c(F)c(F)c(F)c2C(=O)O)c(C)c1,-9.2%
Cc1ccc(-c2csc(NC(=S)NC(=O)c3ccco3)n2)cc1,9.3%
O=C(CN1C(=O)c2ccccc2S1(=O)=O)Nc1cc(S(=O)(=O)N2CCCCC2)ccc1Cl,7.4%
COc1cc(C(c2sc3nc(C)nn3c2O)N2CC(C)OC(C)C2)cc(OC)c1OC (stereo not given),0.9%
CCCCN1C(=O)CN(CCc2ccccc2)C(=O)C1c1ccc(OC)cc1 (stereo not given),-2.8%
Cc1ccc(S(=O)(=O)c2c(N)n(NC(=O)C3CC3)c3nc4ccccc4nc23)cc1,6.5%
O=C(C1CCN(S(=O)(=O)c2ccc(Cl)cc2)CC1)N1CCC1,-26.2%
COc1ccc(C(=O)c2ccc(N3CCOCC3)c([N+](=O)[O-])c2)cc1,8.6%
O=C(CN1CCCC1)Nc1ccccc1Sc1ccccc1,-6.4%
CC(OC(=O)COc1cccc2c1OC(C)(C)C2)C(=O)Nc1ccc(S(N)(=O)=O)cc1 (stereo not given),-3.4%
CCOc1ccc(-c2nnn(CC(=O)NCc3ccc(C)cc3)n2)cc1,-5.1%
COc1ccccc1N1CCN(C(=O)CN(C)S(=O)(=O)c2ccc3c(c2)c(=O)n(C)c(=O)n3C)CC1,-2.0%
CNc1nc(NCCOC23CC4CC(CC(C4)C2)C3)nc(OCC(F)(F)F)n1,-0.3%
O=[N+]([O-])c1ccc(/C=N/N2CCN(c3ccncc3S(=O)(=O)N3CCCCC3)CC2)cc1,?
CCCCc1nnc(NC(=O)C(=O)OCC)s1,1.1%
CCOC(=O)C1=C(N)OC2=C(C(=O)CCC2)C1c1sccc1C (stereo not given),4.6%
CCOC(=O)c1[nH]cnc1C(=O)Nc1cccc(OC)c1,-0.5%
Clc1cc2c(c(CSc3nc4ccccc4n4cccc34)c1)OCOC2,3.4%
COc1ccccc1OCCCCn1c(C(C)O)nc2ccccc21 (stereo not given),-0.6%
Cc1ccc(/C=N/n2c(-c3ccccn3)n[nH]c2=S)o1,-3.7%
O=C(c1cccs1)N1CCN(CCc2ccccc2)CC1,-2.5%
Cc1cc(=O)n2c(n1)NC(Nc1cccc(C)c1C)=NC2c1ccccc1 (stereo not given),-7.5%
Cc1ccc(C(=O)Nc2cccc(C(F)(F)F)c2)cc1NC(=O)c1cnnc2ccccc12,4.0%
O=C(NC1CCCC1)c1ccc2nc(-c3ccco3)c(-c3ccco3)nc2c1,-2.2%
CCOc1ccc(C(C(=O)NCC2CCCO2)N(C(=O)c2snc(C(N)=O)c2N)c2ccc3c(c2)OCCO3)cc1 (stereo not given),0.4%
CCOC(=O)C(=CNCC(=O)O)C(=O)OCC,2.6%
Cc1ccc(N=c2c([N+](=O)[O-])nn(-c3ccccc3)n2O)c(C)c1,4.6%
COc1ccc(Cc2noc(CN(C)CC3(N4CCOCC4)CCCCC3)n2)cc1OC,-14.6%
Cc1nn(C)cc1CN1CCC(CO)(CCOc2ccccc2)CC1,-2.7%
CCOC(=O)C1=C(C)NC(C)=C(C(=O)OCC)C1/C=C/c1ccccc1,28.6%
CC(=O)N1CCc2cc(S(=O)(=O)CCC(=O)NCc3ccc(F)cc3)ccc21,-0.3%
CSCCC(NC(=O)c1ccccc1)C(=O)OCC(=O)Nc1ccc(C)c(Cl)c1 (stereo not given),25.5%
O=C1c2ccccc2C(O)(c2ncc[nH]2)N1C1CCCCC1 (stereo not given),-17.2%
O=C(CN1C(=O)c2ccccc2C1=O)NCc1ccc(N2CCOCC2)cc1,-21.1%
CC(C)c1ccc(NS(=O)(=O)c2ccc(N3C(=O)CCC3=O)cc2)cc1,-5.8%

Screening data deposited in PubChem by National Center for Advancing Translational Sciences (NCATS).

A portion of the library, and most or all hits are left out here.
